Compound activity from PubChem.
Sa growth inh: S. aureus growth inhibition; relative growth, % (test concentration not listed); S. aureus RN4220 growth, OD600, 20 h, 42 °C; active compounds read low; 170,000 compounds, 0.53% hits;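 active means growth at 42 °C up to 50% and 20 or more points under that at 30 °C, or under 10% at both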;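 further: 300 nL library stock went into each well; scaled to the means of positive and negative controls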
GIV Gai3 FP: blocks GIV peptide binding to rat Galpha-i3; Galpha-i3/FITC-GIV peptide fluorescence polarization, 90 min; active compounds read low; scaled: aluminum fluoride 0%, vehicle 100%; AID 1224905; percent of control (FP), % (concentration not given with the values); P08753; 210,000 compounds, 0.42% hits;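 active means replicate mean at 85% of control or lower, very high polarization wells dropped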;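 further: wells of about 15 µL received 100 nL stock; the first replicate is given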
Target sequence (P08753 whole entry, looked up): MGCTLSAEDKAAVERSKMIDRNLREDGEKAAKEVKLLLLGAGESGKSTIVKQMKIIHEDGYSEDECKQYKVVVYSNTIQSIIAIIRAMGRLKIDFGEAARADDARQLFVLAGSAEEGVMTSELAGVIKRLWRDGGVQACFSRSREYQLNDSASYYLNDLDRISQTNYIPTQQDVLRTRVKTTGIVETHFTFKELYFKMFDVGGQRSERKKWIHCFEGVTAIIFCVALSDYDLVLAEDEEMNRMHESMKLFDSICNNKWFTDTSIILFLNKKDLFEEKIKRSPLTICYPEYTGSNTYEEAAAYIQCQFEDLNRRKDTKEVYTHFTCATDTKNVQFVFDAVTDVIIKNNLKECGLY
HCMV UL50-53 inh: inhibitors of HCMV UL50-UL53 nuclear egress complex interaction; HTRF UL50-UL53 interaction, normalized percent inhibition; inhibition, % (test concentration not listed); AID 1918969; 190,000 compounds, 0.15% hits;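 active means both replicates at 50% or more, plus weaker picks with an unusually low signal ratio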;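 further: stock transfer was 100 nL into about 20 µL; 0% = negative control wells and 100% = wells with untagged competitor protein; inactives centre near -12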
Sa growth inh second temp: second read-out of Sa growth inh, no call of its own (marks repeat the call); relative growth, %; measured here: growth at 30 °C;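 optical density after 20 h as mean of two plates; 100% = untreated growth and lower means inhibition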
* hit, by the source's call; nt = no result given; & = joins results of further samples.

SMILES	Sa growth inh	Sa growth inh second temp	GIV Gai3 FP	HCMV UL50-53 inh
CCc1ccc([C@H]2C(C#N)=C(N)C(C#N)(C#N)C3=CCN(C(=O)OC)C[C@@H]32)cc1	95	77	nt	-37
Cc1ccc(C)c(N2CCN(c3c(CN4CCCC4)c(=O)oc4ccccc34)CC2)c1	120	82	105	-2
CCN(CC)c1ncc2c(n1)CC(c1ccco1)CC2=O (stereo unspecified)	81	89	99	6
COCCCn1cnn2c(=O)c3ccccc3nc2c1=O	82	43	102	-6
O=C(O)/C=C\C(=O)Nc1ccccc1SCC(O)Cn1ccc(C(F)(F)F)n1 (stereo unspecified)	91	88	103	-10
Cc1cc(C)n2nc(SCC(=O)NC(C)CCc3ccccc3)nc2n1 (stereo unspecified)	86	79	102	nt
Fc1ccc(CNc2ccc(N3CCOCC3)cc2)cc1	86	97	102	nt
CN(C(=S)NC(=O)c1ccco1)C1CCS(=O)(=O)C1 (stereo unspecified)	86	90	nt	-3
CC(C)NC(=O)N1CCCC(c2cccc(C(=O)N3CCCC3)c2)C1 (stereo unspecified)	nt	nt	110	-3
COc1ccc(CN(CCC2CCOC(C)(C)C2)C(C)=O)cc1 (stereo unspecified)	94	90	102	-11
Cc1cccc(C)c1NC(=O)CSC(=O)c1sc2ccccc2c1Cl	102	87	104	-9
CN1C(=O)c2ccccc2Sc2ccc(NC(=O)c3ccc(C(F)(F)F)cc3)cc21	111	90	102	nt
CC(c1nc2ccccc2c(=O)[nH]1)N1CCN(Cc2ccc(Cl)s2)CC1 (stereo unspecified)	100	106	nt	13
CC(C)c1ccc(C2C(C#N)=C(N)SC(N)=C2C#N)cc1	69	56	nt	-25
O=C(Nc1ccc(Oc2ccccc2)cc1)C1Nc2ccccc2S(=O)(=O)N1 (stereo unspecified)	nt	nt	104	-21
COc1ccc(C(=O)Nc2nc(-c3ccc(C#N)cc3)cs2)c(OC)c1	99	102	108	15
CCOc1ccc(Oc2nc(NCC(C)C)nc(N3CCOCC3)n2)nn1	88	91	103	3
Cc1cccc(OC(=O)Cc2ccc(F)cc2)c1	104	107	nt	-2
CCC(Nc1ccc(-c2nc(-c3cccnc3)no2)cc1[N+](=O)[O-])c1ccccc1 (stereo unspecified)	109	85	95	-25
N#Cc1c(N)nc2c(c1-c1cccnc1)CCCCC2	108	81	nt	2
CCc1ccc2[nH]c(C(=O)Nc3ccccc3C(C)CC)cc2c1 (stereo unspecified)	88	87	103	-38
Cc1nc(N2CCOCC2)cc(N2CCN(C(=O)C(C)C)CC2)n1	nt	nt	101	-15
CCCCn1c(=N)n(CC(O)COc2ccc(OC)cc2)c2ccccc21 (stereo unspecified)	119	84	99	nt
Cc1nonc1N(Cc1ccc(F)cc1)S(=O)(=O)c1ccccc1	87	91	nt	-21
CCOc1ncnc2c1sc1nc(C)cc(C)c12	106	92	103	50

Next part
SMILES	Sa growth inh	Sa growth inh second temp	GIV Gai3 FP	HCMV UL50-53 inh
CCC(=O)Nc1cc(C(F)(F)F)ccc1N1CCCC1	94	80	101	-11
O=C(NC(C(F)(F)F)C(F)(F)F)OCc1ccc(F)cc1	89	83	106	-22
COc1ccc(NC(=O)c2c(NC(=O)c3cccc(C)c3)sc3c2CCC3)cc1	102	82	104	-30
Cc1ccc2sc(-c3nc4ccccc4s3)nc2c1	121	88	104	nt
CNC(=O)C12CC3CC(C)(CC(C)(C3)C1)C2	87	85	98	-44
COc1ccc(OCC(=O)NCC(c2ccc(OC)cc2)N2CCCCC2)cc1 (stereo unspecified)	94	91	102&103	-24&-6
CCOC(=O)c1c(C)c(-c2ccccc2)n(CC(=O)N2CCN(c3ccccn3)CC2)c1C	95	94	100&101	-11&-2
Cc1nn(-c2ccccc2)c(C)c1SCC(=O)O	98	101	nt	-7
Cc1cc(C)c(S(=O)(=O)NCCc2cc3c(C)ccc(C)c3[nH]c2=O)c(C)c1	115	92	103	3
O=C(Cn1cccc1C(=O)c1ccccc1)NCc1ccco1	90	86	105	-4
Cc1ccc(Oc2ccc3nnc(-c4ccccc4)n3n2)cc1C	98	102	98	4
CN1CCN(C2CCN(C(=O)c3ccc4c(c3)OCO4)CC2)C1=O	nt	nt	109	-3
N#C/C(=N\Nc1ccc(S(N)(=O)=O)cc1)C(=O)Nc1ccc(S(N)(=O)=O)cc1	128	90	nt	-48
CCOc1ccc(NC(=O)c2sc3nc(N)c(C#N)c(-c4ccc(OC)c(OC)c4)c3c2N)cc1	nt	nt	100	-19
COc1ccc(NC(=O)C2=C(C)C(=O)OC23CCN(C(C)C)CC3)cc1Cl	78	91	102	nt
O=C(NCC(c1ccc(Cl)cc1)N1CCOCC1)c1ccccc1F (stereo unspecified)	111	84	103	-1
Cc1ccc(C(=O)Nc2ccc(Br)cc2C)cc1I	117	88	99	nt
CCN(c1ccc(OC)cc1)S(=O)(=O)c1ccc2c(c1)CCCC(=O)N2	90	85	103	-18
Cc1ccc(NC(=O)C2CCCN2S(=O)(=O)c2ccc(Cl)cc2)cc1 (stereo unspecified)	120	85	nt	-32
COc1ccc(NC(=O)CN(c2ccc(OC)c(OC)c2)S(=O)(=O)c2ccc(C)cc2)cc1OC	nt	nt	105	4
CC1=NN(c2ccccc2)C(c2ccccc2)C1 (stereo unspecified)	73	94	104	17
CCCN1C(=O)/C(=c2\sc3n(c2=O)C(c2ccc(OC)cc2)C(C(=O)OCC)=C(C)N=3)c2ccccc21 (stereo unspecified)	nt	nt	110	-9
Cc1cc(NC(=S)NC(=O)c2cn(-c3ccccc3)nc2-c2cccc(Br)c2)no1	108	98	nt	20
CCc1nnc2c(N3CCCc4ccccc43)nc3ccccc3n12	86	92	108	-24
FC1(F)C2C3CC4C5C3C1C5C(F)(F)C42 (stereo unspecified)	92	100	nt	4

Reprinted from the part before: five compounds; new compounds follow.
SMILES	Sa growth inh	Sa growth inh second temp	GIV Gai3 FP	HCMV UL50-53 inh
CC1=NN(c2ccccc2)C(c2ccccc2)C1 (stereo unspecified)	73	94	104	17
CCCN1C(=O)/C(=c2\sc3n(c2=O)C(c2ccc(OC)cc2)C(C(=O)OCC)=C(C)N=3)c2ccccc21 (stereo unspecified)	nt	nt	110	-9
Cc1cc(NC(=S)NC(=O)c2cn(-c3ccccc3)nc2-c2cccc(Br)c2)no1	108	98	nt	20
CCc1nnc2c(N3CCCc4ccccc43)nc3ccccc3n12	86	92	108	-24
FC1(F)C2C3CC4C5C3C1C5C(F)(F)C42 (stereo unspecified)	92	100	nt	4
COC(=O)c1cc(S(=O)(=O)N2CCCN(Cc3ccc(F)cc3)C2)cn1C	nt	nt	100	-20
CCOC(=O)c1sc2nc3n(c(=O)c2c1C)CCCC3	105	90	104	nt
CCC(C)NC(=O)CN(C)S(=O)(=O)c1ccc2c(c1)c(=O)n(C)c(=O)n2C (stereo unspecified)	nt	nt	99	-40
O=C(O)C1C2C=CC(C2)C1C(=O)N(Cc1ccccc1)Cc1ccccc1 (stereo unspecified)	108	85	101	15
CC1(C)CC(O)c2ccccc2O1 (stereo unspecified)	97	94	98	-10
O=C(CCN1C(=O)c2ccccc2C1=O)N1CCN(c2cccc(Cl)c2)CC1	103	86	99	nt
Cc1cc(/C=C(/C#N)C(=O)NCc2ccccc2)c(C)n1-c1cccnc1	95	49	100	-96
CCCc1oc2c(c(=O)c1CC)C(=O)CC(C)(C)C2	122	87	105	-7
O=C(CC1CCCCC1)N1CCN(c2ccccc2)CC1	107	99	99	-25
Cc1ccccc1-c1nn2c(=O)cc(N3CCN(C(=O)c4ccc(C(C)(C)C)cc4)CC3)nc2s1	nt	nt	99	16
Oc1ccccc1-c1ccnc2cc(-c3ccccc3)nn12	nt	nt	105	-44
COc1ccc(C2(CNC(=O)c3ccc(NC(=O)c4ccco4)cc3)CCOCC2)cc1	128	95	101	-14
Cc1ccc(S(=O)(=O)N2CCCc3cc(NS(=O)(=O)c4cccc(Cl)c4)ccc32)cc1	92	94	102	nt
CC(=O)N1CCCc2cc(S(=O)(=O)N(C)CC(=O)Nc3ccc(F)c(Cl)c3)ccc21	95	102	111	nt
Cc1cccc(N2CCN(C(=O)CSc3nc4ccccc4nc3N3CC(C)OC(C)C3)CC2)c1C (stereo unspecified)	91	89	105	-3
COc1ccc(CN(CCN2CCOCC2)C(=O)c2cc3sccc3n2Cc2ccccc2)cc1	110	56	98	13
Cc1ccc(CNS(=O)(=O)c2cc(-c3ccno3)sc2C)o1	nt	nt	110	-24
O=C(Cn1ncc2c3ccccc3n(Cc3ccc(Cl)cc3)c2c1=O)NCc1ccccn1	99	78	115	-26
Cc1nc(N2CC(C)OC(C)C2)c2nnn(Cc3c(F)cccc3Cl)c2n1 (stereo unspecified)	84	88	106	16
O=C(NCC(c1cccnc1)c1c[nH]c2ccccc12)Nc1ccccc1Cl (stereo unspecified)	nt	nt	101	9
CC(C(=O)c1ccc(Cl)cc1)n1nc(-c2ccco2)ccc1=O (stereo unspecified)	83	85	98	nt
N#Cc1c(NC(=O)CSc2nc3ccccc3o2)sc2c1CCCC2	nt	nt	102	-12
O=C(COc1c(CO)cc(Br)cc1CO)NC1CCCc2ccccc21 (stereo unspecified)	104	88	nt	-12
Cc1ccc2nc(NCC(c3c(F)cccc3Cl)N(C)C)cc(=O)n2c1 (stereo unspecified)	88	92	nt	-23
CC(=O)Nc1ccc(-c2nnc3n(Cc4ccccc4)c(=O)c4ccccc4n23)cc1	nt	nt	99	25

Limited to GIV Gai3 FP, HCMV UL50-53 inh and Sa growth inh (five entries from above):
structure,GIV Gai3 FP,HCMV UL50-53 inh,Sa growth inh
O=C(COc1c(CO)cc(Br)cc1CO)NC1CCCc2ccccc21 (stereo unspecified),nt,-12,104
Cc1nc(N2CC(C)OC(C)C2)c2nnn(Cc3c(F)cccc3Cl)c2n1 (stereo unspecified),106,16,84
CCN(CC)c1ncc2c(n1)CC(c1ccco1)CC2=O (stereo unspecified),99,6,81
O=C(Nc1ccc(Oc2ccccc2)cc1)C1Nc2ccccc2S(=O)(=O)N1 (stereo unspecified),104,-21,nt
Cc1nc(N2CCOCC2)cc(N2CCN(C(=O)C(C)C)CC2)n1,101,-15,nt

Following part.
SMILES	Sa growth inh	Sa growth inh second temp	GIV Gai3 FP	HCMV UL50-53 inh
CC(CC(=O)N1CCN(C(c2ccccc2)c2ccccc2)CC1)CC1=NS(=O)(=O)c2ccccc2N1 (stereo unspecified)	nt	nt	103	6
CCCN1CCN(CCCNC(=O)Nc2c[nH]c3ccc(C)cc3c2=O)CC1	nt	nt	109	-26
O=C(NCC1COc2ccccc2O1)c1ccc2c(c1)OCCO2 (stereo unspecified)	96	94	nt	-2
COc1ccc(-c2[nH]nc3c2C(c2ccc(OC(=O)N4CCOCC4)cc2)C(C#N)=C(N)O3)cc1OC (stereo unspecified)	nt	nt	101	-4
Cc1nn(C)c(C)c1Sc1ccccc1N	94	95	nt	-14
CCOc1cc(C(=O)Nc2ccc(N3CCCC3=O)cc2)cc(OCC)c1OCC	103	106	102	-19
Cc1cc(C(=O)Cn2cnc3sc4c(c3c2=O)CCC(C)C4)c(C)n1Cc1ccco1 (stereo unspecified)	105	102	nt	-3
Cc1oc(S(=O)(=O)N2CCCCC2)cc1C(=O)Nc1ccccc1	94	83	105	-42
CC(Oc1ccccc1)C(=O)N1CCN(Cc2cc(=O)n3nc(-c4ccccc4Cl)sc3n2)CC1 (stereo unspecified)	83	91	104	nt
Cc1ccc(-c2nc3c4ccccc4[nH]c(=O)n3n2)cc1	92	85	101	-6
NC(=O)c1nc(-c2ccc3c(c2)OCCO3)nc2c1n(Cc1ccccc1)c(=O)n2-c1ccc(F)cc1	nt	nt	105	10
O=C1CCC(=O)N1CNc1ccccc1	89	97	109	-60
Cc1ccc(-c2csc3nc(CCl)[nH]c(=O)c23)cc1	80	89	nt	12
COc1ccc(Cc2nnc3sc(-c4ccc(OC)cc4OC)nn23)cc1	nt	nt	110	-3
CC(OC(=O)c1cc2sccc2n1C)C(=O)NC1CCCC1 (stereo unspecified)	88	90	104	1
COc1ccc2c(c1)c1c(c(=O)n(-c3ccc(OC)c(OC)c3)c(=O)n1Cc1ccccc1C)n2C	132	83	105	nt
Cc1c(NC(=O)CN2C(=O)C(C)(C)c3ccccc32)c(=O)n(-c2ccccc2)n1C	nt	nt	98	-31
O=C(Nc1ccccc1OCc1cc(=O)n2ccccc2n1)c1cccc(Br)c1	94	93	101	nt
Cc1ccc(S(=O)(=O)N(CC(=O)Nc2ccc(C(C)C)cc2)Cc2ccccc2)cc1	109	99	107	-30
COc1ccc(Cl)cc1NC(=O)CSc1nc2ccccc2nc1N1CCCCC1	93	98	109	-1
CCCn1c(=O)c2ccc(C(=O)NC(C)C)cc2n2c(=O)n(CC(=O)Nc3ccc(CC)cc3)nc12	nt	nt	107	-12
CCc1ccc(NC(=O)CSc2c3c(nc4ccccc24)CCCC3)cc1	109	91	108	nt
COC(=O)c1cccc(NC(c2cccnc2)c2ccc3cccnc3c2O)c1 (stereo unspecified)	nt	nt	100	-71
CCOCCOC(=O)C1=C(C)NC2=C(C(=O)CC(c3ccc(OC)cc3)C2)C1c1cccc([N+](=O)[O-])c1 (stereo unspecified)	nt	nt	103	-25
O=c1c2c(nc3nc(-c4ccc(Cl)cc4)[nH]n13)CCC2	nt	nt	98	-13
O=c1[nH]c2cc(Cl)c(Cl)cc2n1-c1ccncc1	99	92	105	-16
O=C1CCC(=O)N1c1ccc(S(=O)(=O)NCc2csc3ccc(Cl)cc23)cc1	110	87	102	-9
O=S(=O)(c1cccc2ccccc12)N1CCCCC1	107	91	106	11
